# ALR H2O2 inh: inhibitors of human sulfhydryl oxidase ALR; inhibition, % (test concentration not listed); P55789; purified ALR, DTT oxidation, H2O2 HRP-luminol luminescence; AID 485317; 290,000 tested, 3.8% active;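 active = mean and each replicate at 75% or more; inconclusive = only one of the two met; inactive = neither met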;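 note: stock transfer was 7.5 nL into about 7.5 µL; 0% = neutral wells and 100% = wells with inactivated enzyme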
# Target sequence (P55789 whole entry, looked up): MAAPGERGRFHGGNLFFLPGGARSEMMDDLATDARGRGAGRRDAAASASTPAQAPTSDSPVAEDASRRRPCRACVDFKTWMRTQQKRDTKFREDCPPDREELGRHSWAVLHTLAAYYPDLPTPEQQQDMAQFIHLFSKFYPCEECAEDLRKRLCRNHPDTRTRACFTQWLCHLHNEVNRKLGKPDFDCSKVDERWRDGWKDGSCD
# HNF4A DNA FP: change in binding of human HNF4 alpha to DNA | activity change, % at 10 µM | AID 1224865 | 360,000 tested, 0.3% active | HNF4a-FITC DNA binding, fluorescence polarization, 1 h | P41235; in the data active = activity change above about 30%, passing the limit was not always enough;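 note: controls were the assay level and a saturating level of protein; the project sought stronger binding though the title names inhibitors; some compounds called inactive have numbers as strong as hits; positive values seem to mean higher polarization but the record does not say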
# Target sequence (P41235 whole entry, looked up): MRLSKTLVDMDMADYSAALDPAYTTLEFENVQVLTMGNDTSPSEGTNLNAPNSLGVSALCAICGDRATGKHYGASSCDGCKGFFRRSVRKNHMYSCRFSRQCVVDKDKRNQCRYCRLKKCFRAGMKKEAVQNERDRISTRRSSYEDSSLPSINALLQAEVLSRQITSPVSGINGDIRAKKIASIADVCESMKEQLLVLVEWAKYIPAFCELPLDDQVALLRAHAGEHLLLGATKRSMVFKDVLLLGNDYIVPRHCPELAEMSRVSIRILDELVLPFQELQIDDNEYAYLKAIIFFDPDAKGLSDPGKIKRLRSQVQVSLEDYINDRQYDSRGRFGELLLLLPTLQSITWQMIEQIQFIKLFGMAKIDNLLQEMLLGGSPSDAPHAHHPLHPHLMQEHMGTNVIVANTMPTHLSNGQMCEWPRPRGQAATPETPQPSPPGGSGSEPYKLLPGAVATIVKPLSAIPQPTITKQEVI
# Ecoli growth: E. coli growth inhibition | Escherichia coli growth, OD600, 23 h; hits give low values | OD600 absorbance (concentration not given with the values) | 330,000 tested, 0.21% active | AID 1053175;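 active = OD600 absorbance below the run mean of sample wells minus 3.6 SD, in any replicate, cut at about 0.56 in these data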;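 note: stock transfer was 300 nL into about 60 µL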
# Ecoli rRNA inh: inhibits bacterial ribosomal RNA function over humanized ribosomes; 350,000 tested, 1.6% active; E. coli WT GFP vs humanized-ribosome RFP mutants, fluorescence, 24 h; hits give low values; DMSO median 0, no signal -100; GFP signal change (wild-type ribosome), % (concentration not given with the values);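 active = significant combined selectivity score with lowered wild-type GFP, culture density cut under 30%, mutant RFP and density less affected; inactive = any of these conditions unmet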; note: one replicate is shown; some compounds called inactive have numbers as strong as hits
# UCH37 DUB inh: inhibitors of human deubiquitinating enzyme UCH37; Q9Y5K5; purified proteasome/UCH37, Ub-AMC cleavage fluorescence; inhibition, % (no concentration beside the values); 330,000 tested, 0.33% active; AID 588478;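 active = mean of two replicates above 20%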;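 note: 0% = compound-free wells with enzyme and 100% = wells lacking proteasome; stock transfer was 100 nL into about 20 µL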
#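 Material: human UCH37 enzyme supplied as purified proteasome complex / Amount: 0.15 nM proteasome as dispensed / Buffer or medium: pH 7.4 Tris-HCl (50 mM) with ovalbumin, ATP-MgCl2, DTT / Times: preincubation 30 min, reaction 25 min, room temperature / Technique: AMC fluorescence from Ub-AMC cleavage, excitation 355 nm, emission 460 nm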
# Beta2AR agonist: human beta-2 adrenergic receptor agonism by FAP. response, % (concentration not given with the values). 340,000 tested, 0.43% active. Am2.2-beta2AR cells, FAP receptor internalization, flow cytometry; reference of the scale not given here;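 active = response above a set limit, near 3 SD of response in nonfluorescent compounds, cut at about 42% in these data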;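 note: stock transfer was 100 nL into about 11 µL; a reference agonist was the positive control; negative values mostly stem from fluorescent compounds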
# FGF22 binding: FGF22 (human) thermal shift binding; recombinant FGF22 thermal shift, SYPRO orange fluorescence; percent of sucrose octasulfate shift, DMSO zero; calls only at 9.99 µM; 340,000 tested, 1.5% active;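 active = melting point raised past a set limit in the mean and every replicate; inconclusive = no clear call; three in four hits are not shown here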
# Target sequence (Q9HCT0 whole entry, looked up): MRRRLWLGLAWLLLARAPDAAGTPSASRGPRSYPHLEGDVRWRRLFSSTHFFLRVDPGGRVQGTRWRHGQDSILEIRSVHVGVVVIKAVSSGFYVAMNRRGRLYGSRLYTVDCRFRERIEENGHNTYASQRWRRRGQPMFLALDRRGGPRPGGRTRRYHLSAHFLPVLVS
# Ecoli rRNA inh OD600: also measured in Ecoli rRNA inh; calls as there; OD600 change, %; measured here: OD600 growth;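 optical density of the mix in the first replicate; 0 = DMSO median and -100 = no signal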
# Ecoli rRNA inh RFP: further read-out of Ecoli rRNA inh, marked with its call; RFP signal change, %; measured here: RFP humanized mutant strains;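 first replicate; 0 = DMSO median and -100 = no signal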
# The depositor's hits bear a star; i = inactive; ? = inconclusive; nt = not tested or not shown. An excerpt; the hit share may differ from the screen's.
SMILES,ALR H2O2 inh,HNF4A DNA FP,Ecoli growth,Ecoli rRNA inh,Ecoli rRNA inh OD600,Ecoli rRNA inh RFP,UCH37 DUB inh,Beta2AR agonist,FGF22 binding
O=C(Nc1ccc(F)c(F)c1)C1CCN(S(=O)(=O)c2cccs2)CC1,1,0.6,0.61,-30,-31,-7.7,0.5,-5,i
CCOC(=O)C1CCN(S(=O)(=O)c2ccc(CNC(=O)c3ccccc3)s2)CC1,-1,-3.2,0.68,2,2,4.6,5.7,5,i
Cc1ccc(-c2cnc(NC(=O)CCC(=O)N(C)Cc3ccccc3)n2C)cc1,-1,4.8,0.71,nt,nt,nt,0.8,5,nt
CCOC(=O)CN(c1cc([N+](=O)[O-])ccc1OC)S(C)(=O)=O,-20,0.2,0.71,11,12,-1.4,3.8,1,nt
CC(NC(=O)/C(=C/c1ccc2c(c1)OCO2)NC(=O)c1cccc([N+](=O)[O-])c1)C(=O)O (stereo unspecified),-6,1.4,nt,11,8,-1.0,nt,7,nt
O=C(C1=C[C@H](C2CC2)C[C@H](OCCCCO)O1)N1CCOCC1,nt,3.5,nt,7,14,-1.1,4.3,-4,i
Cc1nc(-c2ccccn2)sc1C(=O)O,-3,3.0,0.71,7,20,-2.9,5.4,1,i
c1csc(CNc2nc(NCC3CCCCC3)c3sccc3n2)c1,nt,9.3,nt,-63,-76,-30,nt,nt,i
Cc1nnc(SCC(=O)NC2CC2)s1,-1,0.3,0.73,-1,2,-2.4,0.3,19,i
CCOC(=O)C1CCN(C(=O)CNC(=O)Cn2c(C)cc3ccccc3c2=O)CC1,0,1.3,0.7,8,10,-2.1,-11,4,i
NC(=O)C1=C[C@@H](c2ccccc2)C[C@@H](OCc2ccc(CO)cc2)O1,-21,2.0,nt,2,-9,15,1.4,2,i
CN(C)C(=O)CSCc1c(Cl)cccc1Cl,nt,-0.4,0.79,nt,nt,nt,0.8,2,nt
COc1ccc(N2CCN(C(=O)Nc3cccc(C(F)(F)F)c3)CC2)cc1,35,-1.0,0.7,1,5,5.1,1.8,3,nt
O=S1(=O)CCS(=O)(=O)C1c1ccccc1,-4,-1.2,0.67,nt,nt,nt,5.1,-3,i
CC(N1CCOC1=O)S(=O)(=O)c1ccccc1 (stereo unspecified),11,-0.3,0.74,nt,nt,nt,-1.1,-2,nt
Cc1c(C)n(C)c2ccc(C(=O)N3CCN(c4ccccc4)CC3)cc12,14,4.8,0.67,-47,-74,0.9,5.0,3,i
Cc1cc(NC(=O)CCCC(=O)N(CC(=O)NC2CCCCC2)c2ccccc2)no1,nt,-1.1,0.74,nt,nt,nt,1.4,-6,nt
CC1CCC2(CC1)NC(=O)N(NC(=O)c1cccc(N(C)C)c1)C2=O (stereo unspecified),-3,3.7,0.67,3,6,-1.2,0.2,-3,i
CCC(=O)c1ccc(N2CCN(C(=O)c3ccccc3Br)CC2)c(F)c1,nt,2.6,0.72,-20,-18,-0.9,2.6,-2,i
CC(C)N1C(=O)c2ccccc2N(Cc2ccccc2)S1(=O)=O,3,0.5,0.65,-16,-14,5.0,3.3,9,i
COc1cccc(NS(=O)(=O)c2nc3nc(C)cc(C)n3n2)c1,0,-0.7,0.73,9,7,-1.7,4.7,0,i
N#CCC(=O)Nc1ccc(C(=O)NNC(=O)c2ccccc2-n2cccc2)cc1,?,0.6,0.7,2,12,2.7,1.5,-2,i
O=C(Cc1ccccc1)NN1C(=O)C2C3C=CC([C@@H]2C1=O)C31CC1 (stereo partly specified),8,-2.3,0.69,8,4,0.0,2.8,-1,i
O=C(Cn1cc(C(=O)C2CC2)c2ccccc21)Nc1ccc(F)cc1,-1,1.4,0.72,-1,1,-2.1,5.2,-5,i
CC(O/N=C/c1ccccc1OC(F)F)C(=O)Nc1cccc(S(=O)(=O)N2CCOCC2)c1 (stereo unspecified),-1,-2.7,nt,nt,nt,nt,nt,-7,nt

# In the list so far, these contain an aryl methoxy group.
SMILES,ALR H2O2 inh,HNF4A DNA FP,Ecoli growth,Ecoli rRNA inh,Ecoli rRNA inh OD600,Ecoli rRNA inh RFP,UCH37 DUB inh,Beta2AR agonist,FGF22 binding
CCOC(=O)CN(c1cc([N+](=O)[O-])ccc1OC)S(C)(=O)=O,-20,0.2,0.71,11,12,-1.4,3.8,1,nt
COc1ccc(N2CCN(C(=O)Nc3cccc(C(F)(F)F)c3)CC2)cc1,35,-1.0,0.7,1,5,5.1,1.8,3,nt
COc1cccc(NS(=O)(=O)c2nc3nc(C)cc(C)n3n2)c1,0,-0.7,0.73,9,7,-1.7,4.7,0,i

# Continuation:
SMILES,ALR H2O2 inh,HNF4A DNA FP,Ecoli growth,Ecoli rRNA inh,Ecoli rRNA inh OD600,Ecoli rRNA inh RFP,UCH37 DUB inh,Beta2AR agonist,FGF22 binding
O=C(CC1(O)C(=O)N(CCc2ccccc2)c2ccccc21)c1ccco1 (stereo unspecified),-15,-0.3,0.74,nt,nt,nt,-3.7,-11,nt
Cc1ccc(OCCCCN2CCC(C)CC2)c(Br)c1,-19,1.9,0.66,nt,nt,nt,1.2,2,nt
OC(c1ccc(-c2ccccc2)cc1)c1ncc(-c2cccc(F)c2)[nH]1 (stereo unspecified),nt,-1.9,nt,-31,-67,-1.5,nt,nt,i
COc1cc(NC(=O)C2=COCCO2)c(OC)cc1Cl,-9,-2.1,0.65,9,9,1.5,1.6,5,i
CCOC(=O)C1=CC[C@@H](c2ccccc2)N(S(=O)(=O)c2ccc(C)cc2)[C@@H]1C#N,nt,-2.2,nt,-1,6,4.4,nt,nt,i
Cc1ccc(C(=O)NC(NC(=O)c2ccc(C)cc2)C(Cl)Cl)cc1,-16,-4.4,0.76,nt,nt,nt,0.7,3,nt
Cc1ccc(S(=O)(=O)N(CC(=O)NCc2ccccc2)C(=O)N2CCN(C)CC2)cc1,nt,-0.5,0.69,7,12,-1.4,0.4,4,i
CC(=O)Nc1cc(NC(C)=O)cc(C(=O)OCC(=O)N(c2ccccc2)C2CCS(=O)(=O)C2)c1 (stereo unspecified),-3,-5.0,0.7,11,8,3.7,1.9,2,i
Cc1ccc(C)c(OCC(=O)Nc2cc(C)on2)c1,-6,1.4,0.69,8,11,-0.8,3.5,-2,i
Cc1ccc2[nH]c(=O)c(CN(C(=O)c3cccc([N+](=O)[O-])c3)C(C)(C)C)cc2c1,-3,-0.7,0.72,2,4,1.2,2.1,-6,i
CC(C)(C)n1nnnc1CN1CCSCC1,nt,-0.9,0.69,nt,nt,nt,3.9,4,nt
Fc1cc(Cl)ccc1Nc1nc(NCc2ccccc2)nc2ccsc12,nt,-4.3,nt,12,13,0.5,nt,nt,i
CC1=C(C(=O)N(C)C)CC(CC(=O)NCCN2CCOCC2)C(=O)N1Cc1ccc(C(C)(C)C)cc1 (stereo unspecified),nt,-8.1,nt,3,10,-1.0,nt,nt,i
CCOC(=O)c1c(NC(=S)Nc2ccc(F)cc2)sc2c1CCC2,6,1.1,0.71,nt,nt,nt,5.0,11,nt
C/C(=N\Nc1cc(N2CCOCC2)nc(C)n1)c1ccc(F)cc1,5,2.6,nt,-4,1,-1.3,nt,2,i
CCCCn1nnnc1C(c1cc2ccccc2o1)N1CCN(c2ncccc2C#N)CC1 (stereo unspecified),nt,-1.3,nt,9,-2,1.8,nt,nt,i
Cc1ccc(C)c(N2CCN(C(=O)c3cc(S(=O)(=O)N4CCCC4)cn3C)CC2)c1,1,-1.3,0.66,-9,-19,1.7,0.9,26,i
Cc1ccc(SCCSc2nc(C)cc(=O)[nH]2)cc1,-4,-0.8,0.67,3,11,-1.1,4.2,12,i
CC(C)CNC(=O)[C@@H]1CSC2c3ccccc3C(=O)N21 (stereo partly specified),0,-2.5,0.65,14,27,1.5,-0.4,-6,i
Cc1c(Cl)cccc1NC(=S)N1CCN(c2ncccn2)CC1,-3,0.5,0.69,11,11,-6.8,2.9,1,i
O=C1OCC(Cn2c3ccccc3c3ccccc32)O1 (stereo unspecified),-12,-18,0.69,nt,nt,nt,-0.9,4,nt
COc1cccc(-c2csc(NNC(=O)c3cccs3)n2)c1,96*,5.1,0.54,-20,-5,-9.3,3.4,-2,i
C/C(CC(=O)Nc1ccc2ccccc2c1)=N\NC(=O)c1ccc(O)c(O)c1,99*,3.2,nt,-14,-11,-0.2,nt,-5,i
C=CCn1c(CSCc2ccc(F)cc2)n[nH]c1=S,68,0.0,0.68,-4,-5,-2.0,3.3,8,i
O=C(NNC(=O)c1cc2ccccc2o1)c1ccncc1,nt,2.1,0.64,-2,8,2.0,11,-7,i
SMILES,ALR H2O2 inh,HNF4A DNA FP,Ecoli growth,Ecoli rRNA inh,Ecoli rRNA inh OD600,Ecoli rRNA inh RFP,UCH37 DUB inh,Beta2AR agonist,FGF22 binding
Cc1ccc(S(=O)(=O)N2CCN(C(=O)c3ccccc3)C2C(C)C)cc1 (stereo unspecified),nt,1.1,0.66,-2,-1,-1.0,2.2,1,i
CC1=C(C(=O)Nc2ccccc2)C2(CCCCC2)C(C#N)=C(S)N1,nt,2.9,0.79,nt,nt,nt,4.2,0,nt
Cc1ccc(CNC(=O)[C@H](Cc2ccccc2)NC(=O)c2ccco2)cc1,-7,5.1,0.65,2,17,-1.6,2.0,1,i
CCN(CC)C(=O)C1=C(C)N(Cc2ccc(OC)cc2)C(=O)C(CC(=O)NCCN2CCOCC2)C1 (stereo unspecified),nt,-3.4,nt,2,16,-1.2,nt,nt,i
O=c1cc(O)c2ccccc2n1Cc1ccccc1,-55,6.7,0.7,-12,-16,-0.3,1.4,-10,i
COc1ccc(CCNC(=O)Cc2cccc(C(F)(F)F)c2)cc1OC,-7,0.3,0.69,1,16,-0.5,6.3,83*,i

# As a working copy, five of the compounds above:
SMILES,ALR H2O2 inh,HNF4A DNA FP,Ecoli growth,Ecoli rRNA inh,Ecoli rRNA inh OD600,Ecoli rRNA inh RFP,UCH37 DUB inh,Beta2AR agonist,FGF22 binding
CC1=C(C(=O)Nc2ccccc2)C2(CCCCC2)C(C#N)=C(S)N1,nt,2.9,0.79,nt,nt,nt,4.2,0,nt
Cc1ccc(CNC(=O)[C@H](Cc2ccccc2)NC(=O)c2ccco2)cc1,-7,5.1,0.65,2,17,-1.6,2.0,1,i
CCN(CC)C(=O)C1=C(C)N(Cc2ccc(OC)cc2)C(=O)C(CC(=O)NCCN2CCOCC2)C1 (stereo unspecified),nt,-3.4,nt,2,16,-1.2,nt,nt,i
O=c1cc(O)c2ccccc2n1Cc1ccccc1,-55,6.7,0.7,-12,-16,-0.3,1.4,-10,i
COc1ccc(CCNC(=O)Cc2cccc(C(F)(F)F)c2)cc1OC,-7,0.3,0.69,1,16,-0.5,6.3,83*,i

# Of the compounds above, these contain an aryl thioether with sulfur outside any ring.
SMILES,ALR H2O2 inh,HNF4A DNA FP,Ecoli growth,Ecoli rRNA inh,Ecoli rRNA inh OD600,Ecoli rRNA inh RFP,UCH37 DUB inh,Beta2AR agonist,FGF22 binding
Cc1nnc(SCC(=O)NC2CC2)s1,-1,0.3,0.73,-1,2,-2.4,0.3,19,i
Cc1ccc(SCCSc2nc(C)cc(=O)[nH]2)cc1,-4,-0.8,0.67,3,11,-1.1,4.2,12,i

# From PubChem BioAssay
